Cruzain noTriton: cruzain (T. cruzi) inhibition without detergent. purified cruzain, Z-FR-AMC fluorescence, no detergent. Potency, µM, without a hit: max response, negative = inhibition, hits mostly inhibitors. 2.3% of 200,000 active. AID 1476; active = well fitted curve in the direction sought with a large enough effect; inconclusive = small, poorly fitted or top-dose-only effect, or another doubt; inactive = no such curve, though single readings can be large; an effect the other way counts as inactive or inconclusive;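 note: plate controls were enzyme without inhibitor for no effect and buffer without enzyme for full effect; nearly all actives have a fitted effect of over 40% in size; top concentration of the series not given in the record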
Target sequence (P25779 123-467 limits assumed): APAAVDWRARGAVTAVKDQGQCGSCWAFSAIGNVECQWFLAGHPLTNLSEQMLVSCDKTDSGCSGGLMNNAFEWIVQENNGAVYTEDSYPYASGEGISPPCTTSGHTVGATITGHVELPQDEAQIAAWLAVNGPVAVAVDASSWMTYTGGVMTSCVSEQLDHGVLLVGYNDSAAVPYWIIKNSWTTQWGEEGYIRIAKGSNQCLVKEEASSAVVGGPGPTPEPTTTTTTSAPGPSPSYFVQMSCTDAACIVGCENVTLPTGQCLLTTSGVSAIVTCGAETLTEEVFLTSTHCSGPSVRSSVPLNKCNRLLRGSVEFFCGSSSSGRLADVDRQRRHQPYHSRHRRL
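Purified cruzain at 1.5 nM, pre-incubated 15 min with compound at room temperature in 100 mM sodium acetate pH 5.5, 5 mM DTT, 0.00005% Triton X-100. Reaction started with 2 uM Z-FR-AMC; AMC fluorescence increase over 60 s gives rate.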
NS1 function inh: influenza NS1 inhibition; Potency, µM (titrated, usually from 46.1 µM), for the others: at the top dose activity, positive = more growth; 0.4% of 270,000 active; S. cerevisiae slowed by influenza A NS1, growth recovery by OD600; note: actives are rising curves; nearly all actives have a fitted effect of over 50% in size
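Recovery from NS1-induced slow growth read by OD600 in budding yeast switched to galactose assay medium (pH 6.0, -URA) at 1:100 dilution. Compound 23 nl per well; the matching strain lacking NS1 serves as control.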
RE007 growth inh: less growth of the S. pombe RE007 Vpr strain | S. pombe RE007 Vpr strain, BacTiter-Glo ATP luminescence, 24 h; control for the full effect not named in the record | Potency, µM (series often up to 92.2 µM), for inactives: at the top dose activity change, negative = less growth | 0.21% of 360,000 active | AID 651644; active = well fitted falling curve with a large enough effect; inconclusive = small, poorly fitted or top-dose-only effect; inactive = no such curve, though single readings can be large or run the other way;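 note: % is set by controls: 0 for no effect and ±100 for the full control effect; nearly all actives have a fitted effect of over 50% in size; the assay follows cell death caused by Vpr and the record does not say whether a fall means rescue or toxicity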
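Fission yeast strain RE007, carrying one chromosomally integrated HIV-1 vpr copy, was seeded at OD 0.01 in PMG+AL medium with 23 nL pinned compound. After 24 h at 30 °C and 99% humidity, viability was read by BacTiter-Glo luminescence.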
2A StopGo: lowers the luciferase signal of an FMDV 2A StopGo reporter. Potency, µM (top dose mostly 57.9 µM), for inactives: at the highest dose signal change, negative = less light. 1.2% of 410,000 active. human cells with a luciferase reporter of 2A StopGo recoding; control for the full effect not named in the record. AID 1159524; active = well fitted falling curve with a large enough effect; inconclusive = small, poorly fitted or top-dose-only effect; inactive = no such curve, though single readings can be large or run the other way; tested in HEK293T cells; note: % is set by controls: 0 for no effect and ±100 for the full control effect; nearly all actives have a fitted effect of over 45% in size; luciferase light after 4 h
SARS PLP yeast: blocks SARS-CoV papain-like protease in a yeast assay | S. cerevisiae expressing SARS-CoV PLpro, growth rescue; control for the full effect not named in the record | Potency, µM (highest dose often 32.9 µM), without a hit: top-dose activity, positive = growth rescue | 0.19% of 330,000 active; note: 0% is about no effect; nearly all actives have a fitted effect of over 55% in size; growth read by luminescence after 48 h
Marburg entry inh: inhibitors of Marburg virus binding or cell entry | Marburg virus pseudotyped entry inhibition, cell reporter; control for the full effect not named in the record; about a third of the inactives were read at about 46 µM | AID 540276 | Potency, µM (highest dose often 37.8 µM), without a hit: top-dose activity change, negative = inhibition, hits mostly inhibitors | 1.8% of 300,000 active; active = well fitted inhibition curve with a large enough effect; inconclusive = small, poorly fitted or top-dose-only effect, or effect the other way; inactive = flat fitted curve, though single readings scatter; tested in HEK293 cells; about a fifth of its hits are not listed in these tables; note: % is set by controls: 0 for no effect and ±100 for the full control effect; luciferase read-out
LASV entry inh: blocks Lassa virus binding to or entry into cells; Potency, µM (series often up to 37.9 µM), inactives show at the top dose activity change, negative = inhibition, most hits filed as inhibitors; AID 540256; Lassa virus pseudotype entry inhibition, cell reporter; control for the full effect not named in the record; 1.2% of 300,000 active; active means well fitted inhibition curve with a large enough effect; inconclusive means small, poorly fitted or top-dose-only effect, or effect the other way; inactive means flat fitted curve, though single readings scatter; tested in HEK293 cells; note: % is set by controls: 0 for no effect and ±100 for the full control effect; nearly all actives have a fitted effect of over 50% in size; luciferase read-out
Cruzain Triton: cruzain (T. cruzi) inhibition with detergent | P25779 | 0.43% of 200,000 active | AID 1478 | purified cruzain, Z-FR-AMC fluorescence, 0.01% Triton | Potency, µM, for the others: max response, negative = inhibition, hits mostly inhibitors; active = well fitted curve in the direction sought with a large enough effect; inconclusive = small, poorly fitted or top-dose-only effect, or another doubt; inactive = no such curve, though single readings can be large; an effect the other way counts as inactive or inconclusive;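 note: plate controls were neutral wells for no effect and buffer without enzyme for full effect; nearly all actives have a fitted effect of over 40% in size; top concentration of the series not given in the record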
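Steps: dispense cruzain (1.5 nM final) in acetate buffer pH 5.5 with DTT and 0.01% Triton X-100; pin-transfer compounds; incubate 15 min RT; add Z-FR-AMC (2 uM final); read fluorescence every 30 s, using the 60 s intensity change.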
Numbers without * were called inactive; ? = inconclusive; nt = no result given; & = joins results of further samples; [ ] = another dose, or the depositor's remark. Unless noted, calls come from the whole dose curve; as a rule, active means well fitted rising curve with a large enough effect; inconclusive means small, poorly fitted or top-dose-only effect; inactive means no such curve, though single readings can be large or run the other way. Potency is the fitted concentration of half-maximal effect.

SMILES	Cruzain noTriton	NS1 function inh	RE007 growth inh	2A StopGo	SARS PLP yeast	Marburg entry inh	LASV entry inh	Cruzain Triton
CCC(C)NCCOc1ccc(C)cc1[N+](=O)[O-] (stereo not drawn)	nt	3%	2%	10%	-1%	-7%[46.1 µM]	-4%	nt
CN1CCN(S(=O)(=O)c2ccc(NC(=O)c3cccc(S(=O)(=O)N4CCCC4)c3)cc2)CC1	-5%	-5%	-7%	-20%	0%	-1%&-1%	-12%	4.2%
Cc1cc(S(=O)(=O)N2CCCCCC2)c(Cl)cc1Cl	3%	-67%	-18%	6%	-13%	-6%	4%	-3.1%
CCSCCOC(=O)C1=C(C)N(C)C(=O)NC1c1ccc2c(c1)OCO2 (stereo not drawn)	nt	14%	6%	-26%	15%	nt	nt	nt
Cc1ccc2[nH]c3nc(NN)nnc3c2c1	nt	14%	0%	5%	3%	-6%	-9%	nt
COC(=O)CSc1n[nH]c(-c2cccnc2)n1	2%	2%	5%	nt	5%	-11%	7%	6.1%
CCOc1ccc(CCNC(=O)COn2nnc3ccc(S(=O)(=O)N4CCOCC4)cc32)cc1OCC	nt	nt	-14%	?	0%	-11%[46.1 µM]	-13%	nt
CS(=O)(=O)N1CCN(c2cccc(Cl)n2)CC1	-11%	-6%	-9%	-6%	2%	10%[46.1 µM]	11%	-5.5%
Cc1cccc(NC(=O)C[n+]2ccc(N(C)C)cc2)c1	nt	2%	-30%	-15%	2%	nt	nt	nt
CC(=O)c1cc(-c2ccccc2)n(CCC(=O)Nc2ccc(C(C)C)cc2)c1C	-5%	nt	nt	?	nt	nt	?	-8.7%
Cc1ccccc1NC(=O)CCCNC(=O)c1ccc(Cl)cc1	nt	3%	-1%	17%	1%	-7%[46.1 µM]	1%[46.1 µM]	nt
CC1CCc2sc3ncn4nc(C(=O)NCc5ccco5)nc4c3c2C1 (stereo not drawn)	-4%	-34%	4%	?	0%	?	-22%	-4.3%
O=C(COc1ccccc1Cl)NCc1nc(-c2ccccc2)no1	nt	1%	-24%	-10%	-6%	24%[46.1 µM]	-20%[46.1 µM]	nt
CN1CCCCCC1=Nc1ccc([N+](=O)[O-])cc1	nt	nt	4%	-4%	nt	10%	?	nt
COc1cc(C(=O)N2CCc3c([nH]c4ccccc34)C2c2ccccc2)cc(OC)c1OC (stereo not drawn)	?	nt	nt	-13%	nt	nt	?	-4.5%
Cn1c(O)c(C=NC2CCN(Cc3ccccc3)CC2)c(=O)[nH]c1=O	nt	8%	-19%	-7%	0%	-9%	-2%	nt
O=C(NCc1cccc(F)c1)c1ccc2nc(N3CCCCC3)sc2c1	-4%	nt	nt	15%	nt	6%[46.1 µM]	nt	-7.4%
O=C(COC(=O)c1ccc(O)cc1)Nc1ccccc1	nt	-3%	8%	17%	2%	5%[46.1 µM]	5%[46.1 µM]	nt
O=C(CN1C(=O)CCSc2ccc(S(=O)(=O)N3CCCC3)cc21)Nc1ccccc1	-7%	-12%	0%	-8%&-18%	-1%	nt	-3%[46.1 µM]	-0.6%
O=S1(=O)CCOC[C@H](c2ccccc2)N1Cc1ccccc1	nt	-1%	24%	2%	-4%	nt	nt	nt
CC(C)c1cc(C(F)(F)F)nc(NNc2nc(C(C)C)cc(C(F)(F)F)n2)n1	-8%	-1%	17%	?	nt	nt	nt	-1.9%
O=C(Cn1nc(N2CCN(c3ccccc3)CC2)ccc1=O)Nc1ccc(F)cc1F	10%	nt	nt	-28%	nt	nt	-2%[46.1 µM]	-5.1%
CC(=O)Nc1ccc2c(c1)CCC2=O	5%	0%	5%	33%[activator]	1%	7%	?	-1.7%
O=C(CCN1C(=O)C2C3C=CC(C3)C2C1=O)NC1CCCc2ccccc21 (stereo not drawn)	-4%	9%	-1%	5%	6%	?	4%	3.4%
COc1ccc(/C=C2/SC(=O)NC2=O)cc1	nt	-62%	-15%	29%	-6%	nt	nt	nt
O=C1NCC(Nc2ccccc2Cl)C(=O)N1 (stereo not drawn)	nt	nt	-8%	-13%	nt	7%[46.1 µM]	11%[46.1 µM]	nt
CC(=O)c1ccc(NC(=O)c2cc3sccc3n2Cc2ccc(F)cc2)cc1	-22%	nt	nt	0%	nt	5%[46.1 µM]	-7%[46.1 µM]	-4.6%
O=C(N/N=C\C=C\c1ccco1)c1cc(-c2ccc3ccccc3c2)n[nH]1	16µM*	15%	-8%	48%[activator]	-2%	0%	nt	-10%
Cc1ccc(C(=O)O/N=C/c2c(C)nn(C)c2Cl)cc1	nt	-6%	2%	-6%	-1%	13%[46.1 µM]	1%[46.1 µM]	nt
CC(Sc1nnc(-c2cccnc2)n1N)C(=O)N1CCOCC1 (stereo not drawn)	nt	nt	-6%	-18%	-5%	?	-1%[46.1 µM]	nt
CCCN(CCC)CCCNC(=O)c1ccc(CS(=O)(=O)c2c(Cl)cccc2Cl)o1	nt	-2%	-14%	22%	0%	?	11%[46.1 µM]	nt
O=S1(=O)CCC(NC(=S)SCc2ccccc2Br)C1 (stereo not drawn)	nt	nt	0%	16µM*	-3%	?	-1%	nt
CCN(CC)C(=O)CSc1nnc(CCCCCNC(=O)OC(C)(C)C)o1	3%	0%	1%	14%	-2%	-4%	-2%	2.7%
CC1(C)CC(=O)C2=C(C1)OC(c1ccncc1)C(C#N)=C2N (stereo not drawn)	3%	2%	9%	8%	6%	-6%	-4%	3.5%
CC(C)Cn1cc(NC(=O)NCc2ccccc2)c2ccccc2c1=O	-25%	nt	nt	22%	nt	nt	?	-21%
COc1ccc(NC(=O)c2ccc(-c3ccc(-c4noc(C)n4)cc3C)cc2)cc1N1CCN(C)CC1	9%&10%	-17%	-14%	-8%&-20%	nt	2.5µM*	?	-7.2%&-5.9%
CC1CCCN(c2ccc(C(=O)NCc3cccs3)cn2)C1 (stereo not drawn)	-7%	-21%	5%	nt	-12%	12%	10µM*	-7.1%
COCCN(C(=O)c1cc2c(s1)CCC2)c1c(N)n(CC(C)C)c(=O)[nH]c1=O	nt	nt	-10%	-10%	-1%	7%	1%	nt
Cc1cc(=O)oc2cc(OCC(=O)NCC3CCCO3)ccc12 (stereo not drawn)	nt	1%	-6%	3%	0%	nt	nt	nt
CCc1nnc(NC(=O)COc2ccc3ccccc3c2)s1	nt	-15%	-11%	51%[activator]	0%	1%[46.1 µM]	12%	nt
CC(=O)Nc1ccc(S(=O)(=O)N(Cc2cccnc2)Cc2cc3ccc(C)cc3[nH]c2=O)cc1	nt	-4%	2%	-4%	-7%	nt	nt	nt
O=C(CSc1nccn1Cc1ccccc1)Nc1nc2ccccc2s1	-4%	nt	nt	20%	nt	nt	-26%[46.1 µM]	4.7%
COc1cc(CN=C(C)c2c(O)n(C)c(=O)n(C)c2=O)cc(OC)c1	nt	-3%	-1%	?	-1%	?	?	nt
C#CCOCCOCCOCCNc1nc(N2CCN(C(=O)[C@H]([C@@H](C)CC)n3cc([C@@H](N)CC(C)C)nn3)CC2)nc(N2CCN(C(=O)[C@H](CCCCN)n3cc([C@@H](N)CC(C)C)nn3)CC2)n1	nt	2%	2%	3%	1%	nt	nt	nt
CC(Cc1cccs1)NC(=O)Nc1ccc([N+](=O)[O-])cc1 (stereo not drawn)	nt	-42%	11%	2%	-11%	nt	nt	nt
Cc1cc(Cl)ccc1NC(=S)NCCc1ccc(Cl)cc1	nt	-113%	?	15%	-18%	?	27%[46.1 µM]	nt
O=[N+]([O-])c1ccccc1S(=O)(=O)N1CCN(Cc2ccc3c(c2)OCO3)CC1	nt	nt	6%	?	1%	-2%[46.1 µM]	-5%	nt
CCOc1ccc(N2C(=O)S/C(=C\c3cccn3C)C2=O)cc1	-13%	8%	-2%	?	1%	1%	-26%	-6.3%
O=C(Nc1ccccc1F)c1ccc(Cn2cc(Br)cn2)cc1	nt	-8%	4%	49%[activator]	-1%	nt	nt	nt
Clc1ccc(CNCCCSc2ncccn2)cc1	nt	-11%	0%	16%	4%	10%[46.1 µM]	26%[46.1 µM]	nt
Cc1ccc(CSCCNC(=O)c2ccc(NS(C)(=O)=O)cc2)cc1	nt	2%	-11%	-2%	2%	-3%[46.1 µM]	-22%[46.1 µM]	nt
Cc1cc(N)n2ncc(-c3cccc(Br)c3)c2n1	-5%	-105%	?	75%[activator]	-10%	-8%	?	-18%
CCOC(=O)c1c(NC(=O)C2COc3ccccc3O2)sc(C(C)=O)c1C (stereo not drawn)	-5%	0%	7%	nt	2%	?	-16%	4.5%
COc1cc(CN2CCNC(=O)C2CC(=O)NC2CCC2)cc(OC)c1 (stereo not drawn)	nt	-4%	-17%	-2%	-2%	nt	nt	nt
O=C(NNC(=O)C12CC3CC(CC(C3)C1)C2)c1ccccn1	nt	5%	?	?	3%	10µM*	7.9µM*	nt
COc1ccccc1CNC(=O)C1CCC(CNc2c(N3CCC(C)CC3)c(=O)c2=O)CC1 (stereo not drawn)	nt	-4%	-4%	-2%	-2%	nt	nt	nt
CCOC(CNC(=O)c1ccc(N2CCc3ccccc32)c([N+](=O)[O-])c1)OCC	0%	-21%	-7%	?	-28%	?	-13%	-8.6%
CCOC(=O)c1sc(NC(=O)CSc2nc3c(c(=O)n2-c2ccc(F)cc2)SCC3)c(C(=O)OCC)c1C	25µM*	8%	nt	nt	-16%	0%	-1%	-2.7%
CCN1CCN(C(=S)Nc2ccc3nc(N4CCN(C)CC4)cc(C)c3c2)CC1	8%	-13%	-5%	-18%	7%	?	10µM*	-6.9%
CCSc1nnc(NC(=O)C(CC)Oc2ccccc2)s1 (stereo not drawn)	-9%	-111%	-17%	-8%	-4%	-18%	-8%	-3.3%
The results go on:
SMILES	Cruzain noTriton	NS1 function inh	RE007 growth inh	2A StopGo	SARS PLP yeast	Marburg entry inh	LASV entry inh	Cruzain Triton
Cc1cc(C(=O)N/N=C/c2cc(Cl)cc([N+](=O)[O-])c2O)c2ccccc2n1	?	-52%	-16%	-29%	2.2µM*	?	-15%	-15%
Cc1ccc(-n2ncc3c(N4CCCC4)ncnc32)c(C)c1	-4%	-68%	-10%[3.69 µM]	-22%	2%	8%&8%	1%	-5.0%
COc1ccc(-n2c(SC3CCOC3=O)nc3ccccc32)cc1 (stereo not drawn)	0%	-24%	26%	0%	1%	?	-2%	-5.9%
CC(C)[C@H](NC(=O)c1ccccc1Cl)C(=O)OCc1cc(=O)n2cc(Br)ccc2n1	nt	-13%	1%	-14%	-2%	12%[46.1 µM]	0%	nt
